# GIV-Gai inh = inhibitors of GIV GBA-motif binding to rat Galpha-i3. percent of control (FP), % (concentration not given with the values). 0.42% of 210,000 active. AID 1224905. Galpha-i3/FITC-GIV peptide fluorescence polarization, 90 min; stronger effect = lower value; scaled: aluminum fluoride 0%, vehicle 100%. P08753;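 active = replicate mean at 85% of control or lower, very high polarization wells dropped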;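 note: wells of about 15 µL received 100 nL stock; the first replicate is given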
# Target sequence (P08753 whole entry, looked up): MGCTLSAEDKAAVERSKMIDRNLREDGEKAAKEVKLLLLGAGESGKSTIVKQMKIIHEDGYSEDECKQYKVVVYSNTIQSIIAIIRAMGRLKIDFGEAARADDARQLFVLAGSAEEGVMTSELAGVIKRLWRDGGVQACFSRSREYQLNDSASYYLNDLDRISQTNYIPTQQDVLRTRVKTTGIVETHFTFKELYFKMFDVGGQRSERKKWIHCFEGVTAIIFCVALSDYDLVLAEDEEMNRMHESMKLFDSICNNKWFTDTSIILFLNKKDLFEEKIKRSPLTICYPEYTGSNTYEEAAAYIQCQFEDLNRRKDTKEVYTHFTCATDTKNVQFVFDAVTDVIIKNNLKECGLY
# Sa growth 42C = blocks Staphylococcus aureus growth; S. aureus RN4220 growth, OD600, 20 h, 42 °C; stronger effect = lower value; relative growth, % (no concentration beside the values); 0.53% of 170,000 active; AID 720641;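 active = growth at 42 °C up to 50% and 20 or more points under that at 30 °C, or under 10% at both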;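 note: 300 nL library stock went into each well; scaled to the means of positive and negative controls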
# Sa growth 42C second temp = recorded beside Sa growth 42C, whose call it bears; relative growth, %; measured here: growth at 30 °C;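 optical density after 20 h as mean of two plates; 100% = untreated growth and lower means inhibition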
# Starred values were filed as active, the others as inactive; nt = no result given. Not all compounds are listed; the hit share may differ from the screen's.
# Results follow in this order: GIV-Gai inh	Sa growth 42C	Sa growth 42C second temp
- O=c1c(O[C@@H]2O[C@H](CO)[C@H](O)[C@H](O)[C@H]2O)c(-c2ccc(O)c(O)c2)oc2cc(O)cc(O)c12
→ nt	67.0	50.0
- Cc1nc2ccccc2n1CC(O)c1ccccc1 (centres undefined)
→ nt	101.3	76.3
- O=c1c2sccc2[nH]c(=S)n1Cc1ccccc1
→ nt	115.2	90.4
- CC1=CC(=O)/C(=C2/Sc3ccccc3N2C)C(=O)O1
→ nt	104.7	89.9
- Cc1ccc(S(=O)(=O)N(C)c2nc3ccccc3nc2SCC#N)cc1
→ nt	89.9	89.4
- NNC(=O)CCc1cccc(S(=O)(=O)N2CCOCC2)c1
→ nt	88.6	88.8
- CN(Cc1c(F)cccc1Cl)S(=O)(=O)c1cn(C)c(=O)n(C)c1=O
→ nt	95.5	98.6
- Brc1ccc(Oc2ccc(Nc3nc4ccccc4o3)cc2)cc1
→ nt	92.5	98.8
- Cc1cccn2c(=O)c3cc(C#N)c(=NC(=O)c4ccccc4)n(Cc4ccco4)c3nc12
→ nt	85.4	92.0
- CCCOc1ccc(C(=O)CCC(N)=O)cc1
→ nt	108.3	91.2
- Clc1ccc2oc(Nc3ccc4oc5ccccc5c4c3)nc2c1
→ nt	101.2	107.3
- COc1cc(C(=O)OC(C)C(=O)N2CCCc3ccccc32)ccc1OCc1c(C)noc1C (centres undefined)
→ nt	102.4	94.3
- Cc1ccc(C(=O)N2CCOCC2)cc1C
→ nt	96.8	89.2
- C=CC1=C(C(=O)O)N2C(=O)[C@@H](NC(=O)C(=NOCC(=O)O)c3csc(N)n3)[C@H]2SC1
→ nt	-0.2*	-0.2*
- C=CC[C@@H]1C=C(C)C[C@H](C)C[C@H](OC)[C@H]2O[C@@](O)(C(=O)C(=O)N3CCCC[C@H]3C(=O)O[C@H](/C(C)=C/[C@@H]3CC[C@@H](O)[C@H](OC)C3)[C@H](C)[C@@H](O)CC1=O)[C@H](C)C[C@@H]2OC
→ nt	88.6	84.6
- COc1ccc(/C=N/OCC(=O)Nc2ccc3c(c2)OCO3)c(OC)c1
→ nt	113.7	90.8
- Cc1occc(=O)c1OC(=O)c1cccs1
→ nt	104.9	89.3
- CCCCCCCc1c(C#N)c(N)[nH]c(=S)c1C#N
→ nt	46.2	63.1
- CCCCCn1c(=NC(=O)c2ccncc2)c(C#N)cc2c(=O)n3ccccc3nc21
→ nt	96.9	96.6
- CC(NC(=O)Cc1ccccc1)c1nc2ccccc2[nH]1 (centres undefined)
→ nt	92.0	90.5
- CSc1cccc(-n2c(C)ccc2C)c1
→ nt	99.3	93.5
- CCN(CC)c1nc(N)c2c(N)n(-c3ccccc3C)c(=S)c(C#N)c2c1C#N
→ nt	123.1	101.9
- O=C(NCc1nc2ccccc2[nH]1)c1c(F)c(F)c(F)c(F)c1F
→ nt	92.2	89.6
- CC(C)NC(=O)CN1CCN(Cc2ccc(OC(F)(F)C(F)C(F)(F)F)cc2)CC1 (centres undefined)
→ nt	95.1	90.3
- COc1ccc(OC)c(CN2CCN(C(=O)c3cc(S(=O)(=O)N4CCOCC4)ccc3Cl)CC2)c1
→ nt	78.7	89.7
- Cc1nc2ccc(CN(C)c3ccc(C(=O)N[C@@H](CCC(=O)O)C(=O)O)s3)cc2c(=O)[nH]1
→ nt	87.2	83.5
- N#Cc1ccc(COC(=O)Cc2noc3ccccc23)cc1
→ nt	114.0	100.1
- Nc1nc(Cl)nc2c1ncn2[C@H]1C[C@H](O)[C@@H](CO)O1
→ nt	81.7	89.3
- Cc1ccccc1OCCn1c(O)c(N=O)c2ccccc21
→ nt	116.6	96.4
- CCN(C(=O)CCn1c(=O)oc2ccccc21)c1ccccc1C
→ nt	98.9	86.8
- Cc1nsc(N)c1C(=O)OCC(=O)Nc1ccc(F)cc1
→ nt	81.0	78.6
- O=C1c2c(O)cc(O)cc2O[C@H](c2ccc(O)c(O)c2)[C@H]1O
→ nt	99.5	78.4
- Cc1ccc(NC(=O)Sc2ccc(Cl)cc2)cc1
→ nt	72.3	67.1
- CCCCCc1ccc(Nc2cn[nH]c(=O)c2Cl)cc1
→ nt	78.4	87.8
- CC1=Cc2nc3ccccc3n2C2(C(F)(F)F)OC(c3cccs3)=NN12 (centres undefined)
→ nt	85.0	40.3
- Cc1cc(C)c(S(=O)(=O)N2CCSc3ccccc32)c(C)c1
→ nt	93.1	83.1
- CCCCOc1ccc(S(N)(=O)=O)cc1
→ nt	88.0	89.6
- CN(C)S(=O)(=O)c1cc(S(=O)(=O)N(C)C)c2cccc3c2c1NC3=O
→ 111.7	nt	nt
- COc1ccc(NC(=O)c2nnc(C3CCN(S(=O)(=O)c4ccc(Cl)cc4)CC3)s2)cc1
→ 100.3	nt	nt
- Cc1ccc(-c2noc(Cc3nc(-c4ccc5c(c4)OCO5)cs3)n2)cc1
→ 118.9	nt	nt

# An excerpt of these results, bar-delimited.
Structure | GIV-Gai inh | Sa growth 42C | Sa growth 42C second temp
CC(C)NC(=O)CN1CCN(Cc2ccc(OC(F)(F)C(F)C(F)(F)F)cc2)CC1 (centres undefined) | nt | 95.1 | 90.3
COc1ccc(OC)c(CN2CCN(C(=O)c3cc(S(=O)(=O)N4CCOCC4)ccc3Cl)CC2)c1 | nt | 78.7 | 89.7
Cc1nc2ccc(CN(C)c3ccc(C(=O)N[C@@H](CCC(=O)O)C(=O)O)s3)cc2c(=O)[nH]1 | nt | 87.2 | 83.5
N#Cc1ccc(COC(=O)Cc2noc3ccccc23)cc1 | nt | 114.0 | 100.1
Nc1nc(Cl)nc2c1ncn2[C@H]1C[C@H](O)[C@@H](CO)O1 | nt | 81.7 | 89.3
Cc1ccccc1OCCn1c(O)c(N=O)c2ccccc21 | nt | 116.6 | 96.4
CCN(C(=O)CCn1c(=O)oc2ccccc21)c1ccccc1C | nt | 98.9 | 86.8

# Continued.
# Results follow in this order: GIV-Gai inh	Sa growth 42C	Sa growth 42C second temp
- O=c1c2cc3c(cc2nc(SCc2nc(-c4cccc(F)c4)no2)n1CC1CCCO1)OCO3 (centres undefined)
→ 105.4	nt	nt
- CCCCC1=NN(C(=O)C(C)C)C(O)(C(F)(F)C(F)(F)C(F)(F)F)C1 (centres undefined)
→ 107.1	nt	nt
- CN1CC2(C)OC(=O)C(Cl)=C2CC1c1ccccc1 (centres undefined)
→ 106.6	nt	nt
- COc1ccc(-c2ccc(C3Nc4ccc5ccccc5c4C4=C3C(=O)CC(C)(C)C4)o2)cc1Cl (centres undefined)
→ 104.3	nt	nt
- Cc1nnc(NC(=O)CSc2nnc(CNC(=O)c3ccc(S(=O)(=O)N(C)C)cc3)n2-c2ccc(F)cc2)s1
→ 109.3	nt	nt
- Cc1ccc(-c2nc3s/c(=C\c4ccco4)c(=O)n3n2)cc1
→ 109.9	nt	nt
- Cc1csc(-c2cc(S(=O)(=O)NC(C)C)c(C)n2C)n1
→ 103.4	nt	nt
- CCn1c(=O)n(CC(=O)Nc2cc(Cl)c(OC)cc2OC)c(=O)c2ccccc21
→ 106.0	nt	nt
- C1CCC(Nc2nc3nonc3nc2NC2CCCCC2)CC1
→ 107.1	nt	nt
- CCCNc1ncnc2c1c(-c1ccccc1)cn2-c1ccc(C)cc1
→ 104.9	nt	nt
- COC(=O)c1ccccc1NC(=O)Cn1c(C)cc(C)c(-c2nc(-c3ccc(C)cc3)no2)c1=O
→ 100.8	nt	nt
- Cc1onc(-c2ccc(Br)cc2)c1C(=O)NCCCOC(C)C
→ 103.4	nt	nt
- CCN(c1cccc(C)c1)S(=O)(=O)c1cc(-c2nc(C)c(C)s2)sc1C
→ 97.8	nt	nt
- N#CC1=CN(c2ccc(Br)cc2)c2cc(F)ccc2S1(=O)=O
→ 97.7	nt	nt
- CCCS(=O)(=O)N1CCCC1c1cc(C)on1 (centres undefined)
→ 93.5	nt	nt
- CC(C)(C)c1csc(-c2csc(S(=O)(=O)NCc3ccc(F)cc3Cl)c2)n1
→ 101.5	nt	nt
- CCOC(=O)C1=C(C)NC2=C(C(=O)C(C(=O)OCC)C(c3ccc(OC)cc3)C2)C1c1ccc(OC)cc1OC (centres undefined)
→ 97.6	nt	nt
- CC1=C(C(=O)OC(C)C)C(c2cn(-c3ccccc3)nc2-c2cccs2)NC(=O)N1 (centres undefined)
→ 108.7	nt	nt
- CCCc1cc(C2CCCN2Cc2ccc(C)c(C)c2)no1 (centres undefined)
→ 103.5	nt	nt
- O=C1CC2c3ccccc3C1C1C(=O)N(c3cccc(C(F)(F)F)c3)C(=O)C21 (centres undefined)
→ 104.3	nt	nt

# In a second layout: entries from further up
> Cc1csc(-c2cc(S(=O)(=O)NC(C)C)c(C)n2C)n1
- GIV-Gai inh = 103.4
- Sa growth 42C = nt
- Sa growth 42C second temp = nt
> CCn1c(=O)n(CC(=O)Nc2cc(Cl)c(OC)cc2OC)c(=O)c2ccccc21
- GIV-Gai inh = 106.0
- Sa growth 42C = nt
- Sa growth 42C second temp = nt

# (next part)
# Results follow in this order: GIV-Gai inh	Sa growth 42C	Sa growth 42C second temp
- O=C(OC1CCCCC1)c1ccc(-c2ccc(-c3ccc(C(=O)OC4CCCCC4)cc3)cc2)cc1
→ 104.6	nt	nt
- Cc1cccn2c(=O)c(/C=C3\SC(=S)N(Cc4ccco4)C3=O)c(NCc3ccccc3)nc12
→ 120.0	nt	nt
- COc1cc(OC)c(C2C=C(c3ccc(C)cc3)Nc3nc4ccccc4n32)cc1OC (centres undefined)
→ 101.1	nt	nt
- COc1ccc(C(NC(=O)C(C)C)c2ccc3cccnc3c2O)cc1 (centres undefined)
→ 101.8	nt	nt
- COc1cccc(N/C(SCc2ccc(Cl)cc2)=C(/C#N)C(N)=O)c1
→ 109.6	nt	nt
- COc1cc(C2C(C#N)=C(N)N(c3ccc([N+](=O)[O-])cc3)C3=C2C(=O)CCC3)cc(OC)c1OC (centres undefined)
→ 108.8	nt	nt
- COc1ccccc1N1CCN(S(=O)(=O)c2ccc(F)c(C(=O)Nc3ccc(Br)cc3)c2)CC1
→ 106.0	nt	nt
- CN(C)S(=O)(=O)c1ccc(-c2noc(C(=O)NC3CC3)n2)cc1
→ 106.8	nt	nt
- CCOc1ccc(NC(=O)N2CC(=O)N(CC(=O)Nc3cc(Cl)ccc3C)c3ccccc32)cc1
→ 105.3	nt	nt
- COc1cc(C(=O)Nc2cc(C(=O)N3CCCC3)ccc2N2CC3CC(C2)c2cccc(=O)n2C3)cc(OC)c1OC (centres undefined)
→ 107.0	nt	nt
- O=C(c1ccccc1Br)N1CCN(Cc2cc(=O)n3nc(-c4ccccc4)sc3n2)CC1
→ 103.9	nt	nt
- O=C(CN1C(=O)c2ccccc2C1=O)NCc1noc(-c2ccccc2)n1
→ 99.9	nt	nt
- CCN(CC)c1nc(C)nc2sc(C(=O)NCc3ccccn3)c(C)c12
→ 106.8	nt	nt
- Cc1cccc(CNC(=O)CSc2nc3ccccc3nc2C)c1
→ 103.2	nt	nt
- Cc1ccc(N2C(=O)C(N3C(=O)c4ccccc4C3=O)C2c2ccc(Br)s2)cc1 (centres undefined)
→ 109.1	nt	nt
- CCOC(=O)CSc1nnc2c3ccccc3nc(-c3ccc(C)cc3)n12
→ 105.7	nt	nt
- CCCCCCCCOc1ccc(-c2ccc(-c3ncc(CCCCCCCC)cn3)cc2)cc1
→ 114.9	nt	nt
- Cc1nn2c(=O)/c(=C/c3ccc(OCc4ccccc4)cc3)sc2nc1=O
→ 102.9	nt	nt
- Cc1c(C(=O)Nc2ccc(F)c(Cl)c2)sc2ncn(CC(=O)N3CCN(c4ccccn4)CC3)c(=O)c12
→ 108.8	nt	nt
- CC1(C)CC(=O)C2=C(C1)OC1=C(C(=O)CC(C)(C)C1)C2c1cc2ccccc2[nH]c1=O
→ 103.9	nt	nt

# Whole records from above:
# COc1cc(OC)c(C2C=C(c3ccc(C)cc3)Nc3nc4ccccc4n32)cc1OC (centres undefined) is entered as GIV-Gai inh = 101.1; Sa growth 42C = nt; Sa growth 42C second temp = nt
# COc1cc(C(=O)Nc2cc(C(=O)N3CCCC3)ccc2N2CC3CC(C2)c2cccc(=O)n2C3)cc(OC)c1OC (centres undefined) is entered as GIV-Gai inh = 107.0; Sa growth 42C = nt; Sa growth 42C second temp = nt
# COc1ccc(C(NC(=O)C(C)C)c2ccc3cccnc3c2O)cc1 (centres undefined) is entered as GIV-Gai inh = 101.8; Sa growth 42C = nt; Sa growth 42C second temp = nt

# Other records.
# Results follow in this order: GIV-Gai inh	Sa growth 42C	Sa growth 42C second temp
- Cc1ccc2nc(SCc3nc4scc(C)n4c3Br)[nH]c2c1
→ 103.6	nt	nt
- COc1ccc(C2=NN3C(C2)c2cccc(OC)c2OC32CCCCC2)cc1 (centres undefined)
→ 125.8	nt	nt
- Cc1nc(-c2csc(S(=O)(=O)NC3CCCCCC3)c2)sc1C
→ 97.2	nt	nt
- COc1ccccc1NNC(=O)C(O)(c1ccccc1OC)c1ccccc1OC
→ 106.9	nt	nt
- Cc1c(S(=O)(=O)N2CCC(C)CC2)cc(-c2nc(-c3ccc(F)cc3)cs2)n1C
→ 104.9	nt	nt
- CNC(=O)N(O)C1N(/N=C/c2ccccc2)C(=S)SC1(C)C (centres undefined)
→ 100.5	nt	nt
- CCS(=O)(=O)N1CCC(n2cnc3ccc(F)cc3c2=O)CC1
→ 106.1	nt	nt
- COc1cccc(/C=C2\SC(N)=NC2=O)c1OCc1ccc(Cl)cc1Cl
→ 101.6	nt	nt
- CC1CCCN(S(=O)(=O)c2cc(-c3nnc(C4CCC4)o3)co2)C1 (centres undefined)
→ 106.7	nt	nt
- COc1c(I)cc(I)cc1C1Nc2ccc3ccccc3c2C2=C1C(=O)CC(C)(C)C2 (centres undefined)
→ 109.5	nt	nt
